# TAR Tat displ: HIV-1 TAR-Tat binding disruption. HIV-1 TAR RNA, Tat peptide displacement FRET; hits give high values. z-score (no concentration beside the values). actives 0.6% (n = 100,000). AID 1259389;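 note: score is relative to mean and SD of negative controls; some compounds called inactive have numbers as strong as hits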
# CDC25B-CDK2 inh: human CDC25B-CDK2/CyclinA binding inhibition; P30305+P24941; HTRF CDC25B-CDK2/CyclinA binding, anti-His/anti-Flag; hits give high values; AID 1259370; z-score (test concentration not listed); actives 0.72% (n = 94,000);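 note: score is relative to mean and SD of negative controls; strong numbers were not always called active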
# * marks the source's active call; other numbers are inactive results; · = no result given.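 Rule for the calls: active = z-score from 3 up in half or more of its runs; inactive = the rest.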
# Fields – TAR Tat displ	CDC25B-CDK2 inh
CS(=O)(=O)c1oc(-c2ccc(F)cc2)nc1S(=O)(=O)c1ccc(Br)cc1
    -1.2	-3.2
O=C(CSc1nc2[nH]ncc2c(=O)n1-c1ccccc1)NCc1cccs1
    ·	-0.15
CCOCCOC(=O)C1=C(C)NC2=C(C(=O)CCC2)C1c1ccc(C(=O)OC)cc1 (stereo not drawn)
    0	-1.2
COC(=O)c1cc2c(s1)CS(=O)C2 (stereo not drawn)
    ·	-2.3
CS(=O)(=O)N(CC(=O)Nc1ccccc1Br)c1cccc(C(F)(F)F)c1
    ·	0.89
COc1ccc(-c2nnc(SC(C)C(=O)O)o2)cc1 (stereo not drawn)
    1.1	-1.4
O=C(Nc1ccccc1C(=O)NC1CCCCNC1=O)c1cccs1 (stereo not drawn)
    ·	0.88
Cc1ccc(-n2nnnc2CNC(=O)Nc2ccc3c(c2)OCO3)cc1
    0.29	·
Cn1c(Cl)c[n+](C)c1C(O)c1ccccc1 (stereo not drawn)
    1.7	-1.8
CCN(CC)S(=O)(=O)c1ccc2c(c1)N(CC(=O)N1CCC(C)CC1)C(=O)CO2
    1.4	·
Cc1cc(N/N=C/c2cccc(Cl)c2)nc2n[nH]c(N)c12
    ·	-0.59
CCCCN1C(=O)C(O)(CC(=O)c2ccc(OC)cc2OC)c2cc(Br)ccc21 (stereo not drawn)
    -0.12	-0.59
O=C(CCCn1c(=O)c2cccn2c2ccc(F)cc21)NCCc1cccs1
    1.2	·
Cn1c(=O)c2c(ncn2Cc2cc(-c3ccccc3)no2)n(C)c1=O
    -0.02	-1
CCN1CCN(C(c2ccccc2)c2c(O)cc(C)n(Cc3ccco3)c2=O)CC1 (stereo not drawn)
    1.3	·
O=C(NCCCN1CCCC1=O)c1ccc2c(c1)nc1n2CCOC1
    0.67	·
CS(=O)(=O)c1ncc(Cl)c(C(=O)N(Cc2ccc(Cl)cc2)C2CCS(=O)(=O)C2)n1 (stereo not drawn)
    1.4	-2.2
CCOC(=O)CCc1c(C)c2ccc(OCC(C)=O)cc2oc1=O
    ·	-0.61
CCS(=O)(=O)NC(C)C(c1cccs1)N1CCN(c2ccc(OC)cc2)CC1 (stereo not drawn)
    ·	-3
Cc1ccc(-c2nn3c(C)nnc3s2)cc1NC(=O)C(C)C
    0.97	-0.11
Cn1ncc2c(NCCc3cccs3)nc(N3CCC(N4CCCCC4)CC3)nc21
    1.4	·
C=CCSc1ncc(Cl)c(C(=O)Nc2nnc(SCCC)s2)n1
    2.3	-1.8
O=C(Nc1nc2ccc(F)cc2s1)c1cc(-c2ccc3c(c2)OCCO3)on1
    2.2	-2.8
NC1=NC(=O)C(Cc2ccc(OC(F)(F)F)cc2)S1 (stereo not drawn)
    ·	-1.9
Cc1cc(C)nc(N2CCC(C(=O)O)CC2)n1
    2.5	-0.74
CC(C)C[C@@H](C=O)NC(=O)[C@H](CC(C)C)NC(=O)OCc1ccccc1
    0.41	·
Cc1c(C2CCN(S(=O)(=O)c3cnc[nH]3)CC2)c2ccccc2n1Cc1cccc(Cl)c1
    1.1	·
COCCn1c(SCc2ccc(C(=O)OC)o2)nnc1-c1c[nH]c2ccccc12
    ·	-1.1
COCCn1c(SCc2ccccc2C)nnc1-c1c[nH]c2ccccc12
    ·	-2.8
O=C(CSc1nc2c(c(C(F)(F)F)n1)CCc1ccccc1-2)NCc1ccncc1
    0.94	-0.67
Cc1oc2ncnc(N3CCCCC3)c2c1C(=O)N(Cc1cccs1)C1CCCC1
    -0.32	·
O=C(O)c1cc(-c2ccc3c(c2)OCCO3)n[nH]1
    0.57	0.4
CC1(C)NC(=O)N(CC(O)CN2C(=O)NC(C)(C)C2=O)C1=O
    ·	6
CC1(C)Cc2[nH]c(=O)c(C#N)cc2CO1
    0.23	1.2
CCCCOc1ccc(/C=C2\SC(=S)N(CC(=O)O)C2=O)cc1OC
    ·	0.41
O=C(NCc1csc(-c2cccs2)n1)[C@H]1CSCN1C(=O)c1ccccc1Cl
    0.44	·
CN(CC(O)Cn1c2ccccc2c2ccccc21)S(C)(=O)=O (stereo not drawn)
    ·	-1.6
Cc1cccc(NC(=O)c2c(O)c3ccccc3[nH]c2=O)n1
    1.7	·
Cc1ccc(Nc2c3c(nc4nncn24)CCC3)cc1C
    1.1	0.31
CCC(C)Nc1c(-c2ccc(Cl)cc2)c(=O)c1=O (stereo not drawn)
    -0.42	·
Cc1ccc(C(=O)Nc2c(C)nc3sccn3c2=O)cc1
    1.6	·
CCc1ccc(N2C(=O)N(Cc3ccc(Br)cc3F)C3CS(=O)(=O)CC32)cc1 (stereo not drawn)
    1.2	1.7
O=C(CSc1ccc2nnc(-c3ccccc3)n2n1)N1CCOCC1
    ·	-2.5
O=C(NC(=S)N1CCc2ccccc21)c1cncc(C#Cc2ccccc2)c1
    ·	-1.2
Cc1ccc(-c2nn[nH]n2)cc1
    ·	2.7
CCN(Cc1ccccc1)C(=O)CSc1nnc(C)n2c1cc1sccc12
    3.7	·
O=C1OC2(O)c3ccccc3C(=O)N2c2ccccc21 (stereo not drawn)
    ·	1.1
Nc1nc(SCc2ccc(C(=O)NCCO)cc2)nc2sc3c(c12)CCCC3
    0.18	-0.49
O=C(C1CCCN(S(=O)(=O)N2CCCCC2)C1)N1CCN(Cc2ccc3c(c2)OCO3)CC1 (stereo not drawn)
    3	·
CSc1ccc(C2NC(C(=O)O)CS2)cc1 (stereo not drawn)
    3	·
Cc1cccc(CN2C(=O)N(Cc3ccccc3)S(=O)(=O)c3ccccc32)c1
    1.8	·
O=C(O)CC(C(=O)NCc1ccccc1)C1=CCCCC1 (stereo not drawn)
    ·	-1.7
O=C1CN(c2ccc(OC(F)(F)F)cc2)C(=O)CN1Cc1ccc2c(c1)OCO2
    ·	-1.1
COC(=O)c1c(NC(=O)CCSc2nnc3ccccn23)sc2c1CCC2
    3.2	-2.7
Cc1cc2n(n1)CCC(=O)N2CCCC(=O)NC1CC1
    2.3	·
CCSc1nnc(NC(=O)c2cc(S(=O)(=O)N3CCOCC3)cn2C)s1
    1.6	·
COc1cc(S(=O)(=O)N2CCOCC2)ccc1Cl
    0.29	0.07
CCOc1ccc(S(=O)(=O)[C@H]2CS(=O)(=O)C[C@@H]2NCc2ccccc2C)cc1
    1.4	0.42
Cc1ccc(-c2c(C(F)(F)F)nn3c(N4CCN(CCO)CC4)cc(C)nc23)cc1
    1	0.63
Brc1ccc(CN2CCc3nc(N4CCN(c5ncccn5)CC4)ncc3C2)cc1
    -0.67	·

# Later entries
# Fields – TAR Tat displ	CDC25B-CDK2 inh
Cn1c(=O)c2cc(S(=O)(=O)NCCC(=O)NCC3CCCO3)ccc2n(C)c1=O (stereo not drawn)
    ·	0.59
CCCCN1C=C(OC(=O)CN2C(=O)CCC2=O)c2ccccc2S1(=O)=O
    -0.71	-1.3
COc1ccc(C2=Nn3c(Cc4ccccc4)nnc3SC2)cc1
    0.84	·
COCCNS(=O)(=O)c1ccc(-c2ccc(=O)[nH]n2)o1
    2	·
O=c1c2ccccc2nc2sc(Nc3ccc4c(c3)OCO4)nn12
    19*	·
O=C(c1ccco1)N1CCSCC1
    ·	-0.98
CC(C)(C)c1ccc(-c2noc(CNS(=O)(=O)c3ccc(F)cc3)n2)cc1
    2.1	-1.1
CC(=O)n1c2ccccc2c2nc(Nc3ccccc3)sc21
    -0.59	-0.66
Cc1ccnc(NC(c2cccc(F)c2)c2ccc3cccnc3c2O)c1 (stereo not drawn)
    1.6	-1.1
COCCCNc1sc(S(C)(=O)=O)nc1S(=O)(=O)c1ccc(Cl)cc1
    -0.44	-0.18
O=c1c(S(=O)(=O)c2ccc(F)c(Cl)c2)c[nH]c2c(F)c(Cl)ccc12
    2.7	-3.6
CCC(=O)N1CCc2cc(Br)cc(S(=O)(=O)N3CCN(c4ccc(F)cc4)CC3)c21
    ·	-0.51
Cc1cc(NCc2ccccc2)n2nc(-c3ccc(Cl)cc3)nc2n1
    2.5	-1.7
O=C(NCc1cccnc1)c1cnc2sc(N3CCOCC3)nn2c1=O
    1.5	·
Cn1cc(S(=O)(=O)N2CCCC2)cc1C(=O)N1CCN(c2ccccn2)CC1
    1.6	·

# Whole records, looked up by structure. Values in the order: TAR Tat displ | CDC25B-CDK2 inh
# CC(C)(C)c1ccc(-c2noc(CNS(=O)(=O)c3ccc(F)cc3)n2)cc1 in the list: 2.1 | -1.1
# O=c1c2ccccc2nc2sc(Nc3ccc4c(c3)OCO4)nn12 in the list: 19* | ·
# CCCCN1C=C(OC(=O)CN2C(=O)CCC2=O)c2ccccc2S1(=O)=O in the list: -0.71 | -1.3

# (more compounds)
# Fields – TAR Tat displ	CDC25B-CDK2 inh
Cc1ccsc1C1Nc2ccc3ncccc3c2C2=C1C(=O)CCC2 (stereo not drawn)
    ·	-1.6
Cc1[nH]c2ccccc2c(=O)c1S(=O)(=O)Nc1ccc(Br)cc1
    1.8	0.29
O=S(=O)(c1ccc(Cl)cc1)N1CCN(c2ncccn2)CC1
    ·	-0.38
O=C(c1ccc(Cl)cc1)N1N=C(c2ccc(Cl)cc2)CC1(O)C(F)(F)F (stereo not drawn)
    ·	-1.8
COc1ccc(/C(O)=C2\C(=O)C(=O)N(Cc3cccnc3)C2c2ccc(N(C)C)cc2)cc1 (stereo not drawn)
    0.7	-0.61
O=C(c1cc(-c2cccs2)[nH]n1)N1CCN(c2ccc(Cl)cc2)CC1
    -1.3	·
Cn1cc(NC(=O)Nc2ccccc2F)c2ccccc2c1=O
    1.1	·
Nc1ccccc1S(=O)(=O)NCC(=O)O
    0.53	-0.83
COc1cccc(-c2n[nH]c3c2C(c2ccc(OC)c(OC)c2)NC3=O)c1 (stereo not drawn)
    0.06	0.61
CCCn1c(Nc2nc3ccccc3n2C)nc2ccccc21
    -0.57	-1.3
CC1CC(=O)Nc2cc(S(=O)(=O)NCCCN3CCOCC3)ccc2S1 (stereo not drawn)
    0.76	·
Cc1oc2ncnc(N3CCOCC3)c2c1C(=O)N1CCCC(C)C1 (stereo not drawn)
    0.32	·
COc1ccc(C2Nc3ccccc3NC3=C2C(=O)CC(c2ccco2)C3)cc1 (stereo not drawn)
    ·	1.2
Cc1cc(C)cc(NC(=O)CSc2nnc3c4c5c(sc4ncn23)CCCC5)c1
    -1.2	0.06
CC(=O)Nc1ccc(F)cc1F
    ·	-1.2
Cc1nnc2c(NCCc3ccccc3)nc3ccc(C(=O)c4ccccc4)cc3n12
    -0.07	·
Cc1c(NC(=O)CSc2nc(-c3ccccc3)c(C#N)c(=O)[nH]2)c(=O)n(-c2ccccc2)n1C
    0.66	-1.5
COC(=O)c1c(-c2ccccc2)csc1NC(=O)CSc1nnc2sc3ccccc3n12
    ·	0.4
CC(C(=O)N1CCN(c2ccccc2)CC1)N1Cc2ccccc2C1=O (stereo not drawn)
    2	·
Cn1c(SCC(=O)Nc2ccccc2)nc2c(c1=O)SCC2
    1.2	-2.4
CCCCCc1nc2scc(-c3ccc(OC)c(OC)c3)c2c(=O)o1
    0.91	-0.36
CC(C)N(C(=O)CO[C@@H]1[C@H]2OC(C)(C)O[C@H]2O[C@@H]1C1COC(C)(C)O1)c1ccccc1 (stereo partly drawn)
    ·	-0.1
Cc1ccc(S(=O)(=O)CC2CSc3nc(N)cc(=O)n32)cc1 (stereo not drawn)
    0.05	-1.4
CCOC(=O)N1CCc2c(sc3c2C(=O)NC(c2ccc(C)cc2)N3)C1 (stereo not drawn)
    -0.12	1.6
O=c1n(Cc2ccccc2)nc2n1-c1ccccc1OC2
    0.63	-0.99
Cc1c(CC(=O)Oc2ccc([N+](=O)[O-])cc2)sc2ccc(Cl)cc12
    ·	-0.75
Cc1oc(-c2ccccc2)nc1CSc1nc2c(c(=O)[nH]1)CCCC2
    0.96	-0.86
Cc1ccc(NC(=O)c2ccc3nn(CC(=O)Nc4ccc(C)cc4C)c(=O)n3c2)cc1
    1	-0.53
Nc1c(-c2nc(-c3ccncc3)no2)nnn1-c1cccc(F)c1
    -1.4	·
COC(=O)c1cccc(NC(=O)CC2C(=O)NCCN2C(=O)c2sc3ccccc3c2Cl)c1 (stereo not drawn)
    ·	-2
CCCCCOC(=O)C1=C(C)NC2=C(C(=O)CCC2)C1c1cc2c(cc1Cl)OCO2 (stereo not drawn)
    0.4	-1.1
CCOC(=O)COc1cccc2c(C)cc(=O)oc12
    ·	-3
CCN1CCN(CCCNC(=O)C2=C(C)C(=O)OC23CCCCC3)CC1
    0.05	·
COc1ccc(N2CCN(c3ncnc4onc(-c5ccc(F)cc5)c34)CC2)cc1
    0.1	·
O=C(NCCC1=CCCCC1)c1csc2c1CCCCC2
    0.53	0.74
COc1ccccc1C1CC(c2ccc(C)c(C)c2)Nc2nnnn21 (stereo not drawn)
    1.4	·
Cn1c(=O)[nH]c2nnc(-c3ccc(Cl)cc3)nc2c1=O
    3.6	-1.7
Clc1ccc(-c2noc(-c3cccnc3NC3CCCC3)n2)cc1
    0.05	-0.51
Cc1nc2ncnn2c(C)c1CCC(=O)Nc1ccc(Br)cn1
    ·	0.09

# No new results follow: entries from further up.
# Fields – TAR Tat displ	CDC25B-CDK2 inh
CCN1CCN(CCCNC(=O)C2=C(C)C(=O)OC23CCCCC3)CC1
    0.05	·
COc1ccc(N2CCN(c3ncnc4onc(-c5ccc(F)cc5)c34)CC2)cc1
    0.1	·
O=C(NCCC1=CCCCC1)c1csc2c1CCCCC2
    0.53	0.74
COc1ccccc1C1CC(c2ccc(C)c(C)c2)Nc2nnnn21 (stereo not drawn)
    1.4	·
Cn1c(=O)[nH]c2nnc(-c3ccc(Cl)cc3)nc2c1=O
    3.6	-1.7
Clc1ccc(-c2noc(-c3cccnc3NC3CCCC3)n2)cc1
    0.05	-0.51
Cc1nc2ncnn2c(C)c1CCC(=O)Nc1ccc(Br)cn1
    ·	0.09
